PABP polyA inh – PABP-poly(A) binding inhibition; P11940; PABP-poly(A) RNA binding, fluorescence polarization; inhibition, % at 35 µM; 290,000 tested, 1% active; AID 2014;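 active = 50% or more with normal probe brightness, or confirmed in later tests; about a fifth of its hits are not listed in these tables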;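 note: calls also rest on retests at 20 µM and on dose response follow-up; controls were probe without protein and protein plus probe with vehicle; some compounds called inactive have numbers as strong as hits; many hits fall short of the cut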
Target sequence (P11940 whole entry, looked up): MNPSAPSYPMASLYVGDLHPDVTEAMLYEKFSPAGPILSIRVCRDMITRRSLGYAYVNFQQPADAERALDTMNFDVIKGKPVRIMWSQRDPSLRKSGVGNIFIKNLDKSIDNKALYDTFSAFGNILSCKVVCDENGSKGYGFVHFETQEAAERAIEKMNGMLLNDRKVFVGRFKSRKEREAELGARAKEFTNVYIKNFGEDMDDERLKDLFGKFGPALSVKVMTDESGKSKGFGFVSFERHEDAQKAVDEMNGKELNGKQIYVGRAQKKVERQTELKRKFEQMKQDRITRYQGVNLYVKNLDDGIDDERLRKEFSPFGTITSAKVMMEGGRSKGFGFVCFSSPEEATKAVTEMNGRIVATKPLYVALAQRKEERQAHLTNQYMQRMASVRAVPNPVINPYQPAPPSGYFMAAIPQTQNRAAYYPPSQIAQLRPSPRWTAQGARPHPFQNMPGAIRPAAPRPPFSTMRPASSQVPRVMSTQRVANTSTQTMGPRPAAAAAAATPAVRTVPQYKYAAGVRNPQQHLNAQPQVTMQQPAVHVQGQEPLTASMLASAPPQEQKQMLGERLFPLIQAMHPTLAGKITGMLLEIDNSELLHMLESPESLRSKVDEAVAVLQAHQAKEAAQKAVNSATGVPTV
Env fusion inh – inhibitors of HIV Env-mediated cell fusion; AID 651610; HeLa-JRFL Env/CEM21 cell fusion, luciferase; 360,000 tested, 1.1% active; inhibition, % at 12.3 µM;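 active = mean replicate inhibition score of at least 50 and every replicate individually at or above 50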;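 note: 0% = plate neutral controls and 100% = maraviroc near 300 nM; one replicate is shown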
eIF4H FP inh – inhibitors of RNA binding by human eIF4H; eIF4H fluorescence polarization binding assay; inhibition, % at 35 µM; 290,000 tested, 0.94% active; AID 2012;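 active = 50% or more with normal probe brightness, or confirmed in later tests; about a fifth of its hits are not listed in these tables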;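 note: calls also rest on retests at 20 µM and on dose response follow-up; 0% = protein and probe with vehicle and 100% = probe without protein; strong numbers were not always called active; many hits fall short of the cut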
UUG fidelity – modulators of start codon recognition fidelity in yeast; S. cerevisiae UUG-firefly luciferase reporter, luminescence/redox ratio; activity score, % at 18.7 µM; 350,000 tested, 0.13% active;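 active = replicate mean at a twofold rise or more, about +100% in these data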;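 note: firefly luciferase made from a UUG start codon reports start codon fidelity; reporter light over untreated wells divided by growth signal over untreated wells; some hits fall short of that in this replicate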
CSC inhib – blocks cancer stem cells. cancer stem cell-like cells viability, luminescence. inhibition, % at 7.5 µM. 300,000 tested, 1.1% active;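 active = mean at 75% or more and at least half the replicates too; tested in HMLE shEcad cells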;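 note: 0% = median of negative and 100% = median of positive control wells; the first replicate is given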
Rce1 inh – yeast Ras-converting enzyme inhibition. 290,000 tested, 0.27% active. yeast membranes, quenched prenylated peptide cleavage fluorescence. calls only;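 active = fall in fluorescence gain of 50% or more versus controls, with final raw signal at or below 3038400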;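 note: plate controls were neutral control wells for no effect and wells lacking membranes for full effect; tested at 10 µM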
Target sequence (Q03530 whole entry, looked up): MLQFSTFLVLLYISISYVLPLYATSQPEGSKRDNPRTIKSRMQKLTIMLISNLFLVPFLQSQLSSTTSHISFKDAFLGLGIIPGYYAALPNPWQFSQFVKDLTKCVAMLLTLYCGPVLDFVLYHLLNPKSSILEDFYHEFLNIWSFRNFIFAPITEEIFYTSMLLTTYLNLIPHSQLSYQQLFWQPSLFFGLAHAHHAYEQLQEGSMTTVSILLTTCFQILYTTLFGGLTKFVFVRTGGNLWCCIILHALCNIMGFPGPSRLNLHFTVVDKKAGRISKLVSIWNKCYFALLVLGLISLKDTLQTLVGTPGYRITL
MT1-MMP act inh – blocks activation of human MT1-MMP; P50281; HT1080 RFP-PRO-GFP cells, GFP/RFP ratio fluorescence, overnight; percent of plate control window, DMSO zero; GFP/RFP ratio change, % at 20 µM; 360,000 tested, 0.061% active; AID 651647;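 active = GFP/RFP ratio change of at least 30% with cell ATP level not reduced by more than half and red fluorescence within 50% of control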; note: strong numbers were not always called active
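Compound: 20 µM single dose, 1% DMSO / System: HT1080 RFP-PRO-GFP cells / Controls: DMSO and RFP-L50D-GFP cell wells / Read-out basis: GFP/RFP fluorescence ratio / Schedule: overnight compound exposure at 37 °C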
MT1-MMP act inh RFP – also measured in MT1-MMP act inh; calls as there; RFP signal change, %; measured here: RFP expression control read;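 0 = vehicle wells; hits needed this value within 50% of zero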
An asterisk follows results filed as active; i = inactive; nt = no result given; & = joins results of further samples.

SMILES	PABP polyA inh	Env fusion inh	eIF4H FP inh	UUG fidelity	CSC inhib	Rce1 inh	MT1-MMP act inh	MT1-MMP act inh RFP
CCOC(=O)C(C)n1cnc2sc3c(c2c1=O)CCC3 (configuration not stated)	18	nt	21	-20	4	i	0	3
Cc1ccc(C(=O)N/N=C/c2ccc(S(=O)(=O)O)o2)c(Cl)c1	-5	nt	-2	-11	-17	i	4	6
O=S(=O)(NCc1cccs1)c1ccccc1Cl	nt	nt	nt	-9	4	i	1	2
Cc1cc(=O)oc2c3c(cc(OCC(=O)NCCC(=O)N[C@@H](C)C(=O)O)c12)OC(C)(C)CC3	11	-3	-3	-13	-3	i	0	1
Cc1ccc(O)c(N=Nc2nccs2)c1	nt	nt	nt	-14	1	nt	3	3
O=C(Nc1ccccc1)N1CCCC(c2nc(-c3cccs3)no2)C1 (configuration not stated)	0	nt	5	-14	3	i	-1	-6
Cc1cccc(N(CC(=O)NC(C)C)C(=O)CCC(=O)Nc2nccs2)c1	9	-15	-2	-7	-10	i	1	2
O=C(Nc1ccc2c(c1)OCO2)c1noc2c1CCCCC2	-2	-228	1	-11	6	i	-3	3
CC1CCCCC12NC(=O)N(CC(=O)N1CCc3ccccc3C1)C2=O (configuration not stated)	nt	-8	nt	-18	nt	nt	6	6
CSCCC(NS(=O)(=O)/C=C/c1ccccc1)C(=O)N1CCC(C)CC1 (configuration not stated)	nt	-83	nt	-5	-15	i	-8	-5
Cc1cc(Cl)ccc1OCc1n[nH]c(=S)n1C1CCCCC1	0	-34	5	-12	12	i	2	1
CC1CC(=O)C2=C(C1)OC(N)=C(C#N)C2c1coc2ccccc2c1=O (configuration not stated)	1	-1	4	5	-7	i	-120	6
Cn1cccc1/C=N/NC(=O)c1cccs1	11	-28	-4	-23	-1	i	2	4
COC(=O)C1=C(C)NC(=S)NC1c1ccc(-c2cccc(Cl)c2)o1 (configuration not stated)	2	-24	29	nt	52	i	5	9
Cc1cccc(-n2ccc(=O)c(C(=O)Nc3ccc(S(=O)(=O)N4CCOCC4)cc3)n2)c1	15	6	0	-9	15	i	8	-2
CCOC(=O)c1[nH]cnc1C(=O)Nc1cccc(N)n1	9	nt	2	-8	10	i	1	6
CCOC(=O)/C(=C\c1c[nH]c2ccccc12)NC(C)=O	10	nt	-4	-27	-7	i	-3	0
CC1CN(c2ccnc3cc(Cl)ccc23)CC(C)O1 (configuration not stated)	-1	-4	-9	-11	-6	i	3	-2
O=C(NN=C1c2ccccc2-c2ccccc21)c1cccc(Br)c1	-9	8	-6	nt	13	i	7	1
CCCNC(=O)CSc1nc2[nH]ncc2c(=O)[nH]1	4	-1	-14	nt	-3	i	4	7
COc1ccc(Cl)cc1NC(=O)NC1CCCCC1	-2	nt	4	-10	4	i	0	2
O=C(CSc1nc2c(c(=O)n1-c1ccccc1)SCC2)N1CCN(c2ccccc2)CC1	-10	24	-15	-13	-1	i	3	3
CC1CCN(S(=O)(=O)c2cccc(-c3csc(-c4cccnc4)n3)c2)CC1	-6	nt	-8	nt	6	i	-6	-6
CC(=O)NC1CC(C)(C)N(OC(C)=O)C(C)(C)C1	2	-4	4	-13	nt	i	3	2
Cc1ccc(S(=O)(=O)N2CC(O)CC2C(=O)OCc2nc3sc(C)c(C)c3c(=O)[nH]2)cc1 (configuration not stated)	7	nt	4	nt	-9	i	0	4
CCOC(=O)N1CCN(C(=O)c2n[nH]c(=O)c3ccccc23)CC1	-4	nt	1	-14	7	i	-12	-3
Cc1ccc(C)c(N2CCN(S(=O)(=O)c3ccc4c(c3)C(C)(C)C(=O)N4C)CC2)c1	-2	7	-1	-17	nt	i	0	-13
CC(C)NC(=O)COC(=O)c1ccc(Oc2ccccc2)cc1	-1	nt	-1	-6	-10	nt	0	2
Cc1ccc2nc(-c3ccc(NC(=O)CN4C(=O)c5ccccc5C4=O)cc3)sc2c1	-3	-40	-16	-12	-3	i	-1	0
O=C(/C=C/c1cccs1)c1ccc(NC(=O)c2cccc(Br)c2)cc1	-6	-1	-12	-20	nt	i	-4	-13
NC(=O)N/N=C\c1cccs1	-7	-16	-7	-6	1	i	-7	0
Cc1ccc(N(C)S(=O)(=O)c2cccc(C(=O)OCC(=O)N3CCCC(C)C3)c2)cc1 (configuration not stated)	nt	10	nt	-11	5	nt	2	-14
O=C(Nc1ccc(N2CCOCC2)cc1)c1nc2ccccc2s1	2	-107	-2	nt	nt	i	-5	-1
Cc1ccc(NC(=O)Cn2nnc(C(=O)NCc3ccccc3)c2N)cc1C	-7	-70	-16	-13	-8	i	4	-2
CC(=O)Nc1ccc(Nc2cc(-c3ccccc3)nc3ncnn23)cc1	-6	7	-10	-11	-14	i	-6	-3
COc1ccc(CNC(=O)c2cc(-c3cc(C)cc(C)c3O)n[nH]2)cc1	2	-10	4	-4	58	i	5	1
O=C1OC[C@@H]2CCCN2C(=O)[C@@H](CC(=O)N(CCO)Cc2ccccc2)C/C=C\CC[C@H]1Cc1ccc(F)cc1	nt	-29	nt	-6	-13	nt	-1	-2
N=C1/C(=C/c2ccc(OC(=O)c3ccco3)cc2)C(=O)N=C2SC=CN12	9	-18	6	nt	2	i	-2	4
CC(=CC(=O)c1ccccc1)c1ccccc1	nt	-7	nt	-19	nt	nt	3	4
CC(=O)c1cccc(NC(=O)c2cc(-c3ccncc3)nc3ccccc23)c1	nt	3	nt	-3	3	nt	2	3
Cc1nnc(SCC(=O)Nc2nnc(SCc3cccc(Br)c3)s2)s1	-4	-16	5	-16	11	i	2	7
CC(C)OCC(O)CN1CCC(Cc2ccccc2)CC1 (configuration not stated)	4	-10	6	17	-9	i	4	6
COCCNc1nnc(SCC(=O)c2ccc3c(c2)OCO3)s1	-7	-16	-7	474*	-2	i	-1	1
Cc1ccc(C)c(N(C)S(=O)(=O)c2ccc3c(c2)oc(=O)n3C)c1	1	11	-3	1	-11	i	2	-1
CC(Oc1ccc2ccc(=O)oc2c1)C(=O)NCCN1CCOCC1 (configuration not stated)	0	65*	1	-19	0	i	2	0
COc1ccccc1OCCSc1nnnn1C1CCCCC1	nt	nt	nt	-13	4	i	2	4
C/C=C/C(=O)OCC(=O)NC(=O)NC(C)C	-6	-69	-6	-22	1	i	-2	3
N#Cc1cn(CC(=O)NCc2cccnc2)c2ccccc12	-2	nt	-2	0	-10	i	8	2
O=C(COC(=O)c1cc[n+]([O-])cc1)Nc1cccc(Cl)c1Cl	10	10	-2	nt	2	i	1	8
O=C1N=C(N2CCOCC2)S/C1=C\C=C/c1ccccc1	2	-158	6	-1	5	i	-2	-4

3 structures from above, arranged by formula weight, high to low.
SMILES	PABP polyA inh	Env fusion inh	eIF4H FP inh	UUG fidelity	CSC inhib	Rce1 inh	MT1-MMP act inh	MT1-MMP act inh RFP
Cc1ccc(S(=O)(=O)N2CC(O)CC2C(=O)OCc2nc3sc(C)c(C)c3c(=O)[nH]2)cc1 (configuration not stated)	7	nt	4	nt	-9	i	0	4
CC(=O)c1cccc(NC(=O)c2cc(-c3ccncc3)nc3ccccc23)c1	nt	3	nt	-3	3	nt	2	3
O=C(Nc1ccc2c(c1)OCO2)c1noc2c1CCCCC2	-2	-228	1	-11	6	i	-3	3

(more compounds)
SMILES	PABP polyA inh	Env fusion inh	eIF4H FP inh	UUG fidelity	CSC inhib	Rce1 inh	MT1-MMP act inh	MT1-MMP act inh RFP
Cn1nc(C(C)(C)C)cc1C(=O)NCc1ccc(N2CCCC2=O)cc1	8	64*	-1	12	18	i	8	-20
CN(CC(=O)Nc1ccc(Cl)c(C(F)(F)F)c1)C(=O)c1ccc(N2CCOCC2)c([N+](=O)[O-])c1	nt	2	nt	-8	17	i	7	-1
COc1cc(/C=N/NC(=O)CCn2c3ccccc3c3ccccc32)ccc1O	-2	nt	7	-20	13	i	-6	-17
CC1Cc2ccccc2N1C(=O)C1CCCN1S(=O)(=O)c1ccc(Cl)cc1 (configuration not stated)	-6	nt	-10	-12	17	i	3	6
COc1ccc(CC(Cc2ccc(OC)c(OC)c2)NC=O)cc1OC	nt	-6	nt	2	nt	nt	0	0
CC(C)C(=O)Nc1ccc2nn(-c3ccc(F)cc3)nc2c1	5	nt	-5	-22	8	i	2	2
COc1ccc(CCNC(=O)CSc2nn(-c3ccccc3)c(=S)s2)cc1	5	21	2	-4	3	i	-5	-6
CCOC(=O)c1c(C)[nH]c(C)c1S(=O)(=O)N1CCN(c2cccc(C)c2)C(C)C1 (configuration not stated)	10	18	-16	-15	26	i	0	1
Cc1ccc(OCCNC(=O)CCc2nc3sc4c(c3c(=O)[nH]2)CCCC4)cc1	5	12	8	1	-18	i	-7	-1
CC[C@]12c3[nH]c4cc(-c5ccco5)ccc4c3CCN1C(=O)[C@@H](CC(=O)NCCCN(C)C)C[C@@H]2C(=O)N1CCN(C(=O)c2ccco2)CC1	nt	-17	nt	-19	nt	nt	1	5
O=C(CCC(=O)N/N=C/c1cc(Cl)cc(Cl)c1O)NCc1ccccc1	1	14	5	nt	3	i	-4	1
O=C(Nc1nc2ccccc2s1)c1ccc(OCC2CCCO2)cc1 (configuration not stated)	-3	-40	-2	-47	-4	i	-9	-23
CC[C@@H](C)C(NC(=O)OC(C)(C)C)c1cn([C@@H](Cc2ccc(O)cc2)C(=O)N2CCN(C(=O)OC(C)(C)C)CC2)nn1 (some centres not stated)	-6	-3	-2	-5	-13	i	16	-9
COc1cccc(CC(=O)Nc2ccc3c(c2)CCC3)c1	12	-2	5	nt	nt	i	-3	-5
CCNC(=O)N1CCN(C(=O)NCC)CC1	7	4	-6	-11	-14	i	2	3
Cc1cc(C)n2nc(C(=O)OCC(=O)Nc3ccc(Cl)cc3)nc2n1	nt	-52	nt	3	nt	nt	2	7
CC(=O)c1ccc(-c2ccc(C(=O)N(C)c3c(N)n(Cc4ccccc4)c(=O)[nH]c3=O)o2)cc1	nt	nt	nt	4	-7	i	-9	0
O=C(Nc1nccs1)c1nc[nH]c1C(=O)NCc1ccccc1	nt	-15	nt	-18	51	nt	2	1
NCCCCCC(=O)N/N=C/c1ccc2nccnc2c1	33	4	12	nt	-8	i	-2	-3
COc1ccc(/C=N/n2c(-c3cccs3)n[nH]c2=S)cc1	2	nt	4	nt	-3	i	-2	0
Cc1ccc(S(=O)(=O)N(C)C[C@H]2Oc3c(NC(=O)Nc4cccc5ccccc45)cccc3C(=O)N([C@@H](C)CO)C[C@@H]2C)cc1	nt	-24	nt	-12&-5	nt	nt	2	-11
O=C(COc1ccc2ccccc2c1)Nc1nccs1	3	-8	49	nt	6	i	3	3
COc1ccc(S(=O)(=O)NCc2ccco2)cc1C(=O)N1CCOCC1	13	-1	-3	-13	18	i	2	1
CC1(C)Cc2[nH]c(=O)c(C#N)cc2CS1	8	nt	-6	-17	-4	i	0	0
COCCCNC(=O)C1CCN(S(=O)(=O)N(CC(C)C)CC(C)C)CC1	-1	17	-7	-3	1	i	0	3
O=C1CN(C(=O)CSc2nc3ccccc3c(=O)n2Cc2ccc(F)cc2)c2ccccc2N1	-12	-1	-8	-22	16	i	-7	-4
CCOC(=O)C1=C(CC)Nc2ccccc2N/C1=N\S(=O)(=O)c1ccc(C(=O)OCC)cc1	-5	-7	3	nt	-7	i	-10	-3
Cc1cc(-n2c(C)cc(C(=O)COc3cccnc3[N+](=O)[O-])c2C)no1	nt	-66	nt	-6	nt	nt	-31	-1
COc1ccccc1CCNS(=O)(=O)CCNC(=O)c1ccc2c(c1)OCO2	nt	7	nt	-3	7	i	6	5
Fc1ccc(CNCCC(Cc2ccccc2)c2ccco2)cc1 (configuration not stated)	0	19	0	-5	18	i	1	1
CCOC(=O)c1c(NC(=O)COC(=O)CNC(=O)c2ccco2)sc(C)c1C	7	nt	2	nt	nt	i	-1	1
COc1ccc(NC(=O)CSc2nnc(-c3ccccn3)n2N)c(OC)c1	-9	-138	0	-17	16	i	-6	-2
Cc1noc(C)c1C(=O)N1CCC(C(=O)c2ccc(F)cc2F)CC1	-7	18	-3	nt	-7	nt	2	2
